High-throughput results: PubChem, National Center for Advancing Translational Sciences (NCATS)
PINK1 modulator: A Quantitative High throughput Screen to Identify Chemical Modulators of PINK1 Expression; PINK1 immunofluorescence, high-content cytometry, 24 h; hit rate 0.2% among 410,000; Potency, µM (highest dose often 76.6 µM), inactives show at the highest dose activation (PINK1 increase), hits mostly activators; active = well fitted activation curve with a large enough effect; inconclusive = small, poorly fitted or top-dose-only effect; inactive = flat fitted curve, though single readings scatter; cell line not stated here;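 further: potency means the concentration at half of the fitted maximal effect; % of control where 0% means no effect; nearly all actives have a fitted effect of over 65% in size; a mitochondrial uncoupler was the plate control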
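Measures PINK1 amount and localization on or inside mitochondria by immunofluorescence. Stable cells get compounds at 5 concentrations for 24 hours before fixation and staining; CCCP controls included.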
ClpP mod: qHTS Assay for Activators of ClpP | ATP-dependent Clp protease proteolytic subunit (Bacillus subtilis (strain 168)), P80244 | purified B. subtilis ClpP, FRET peptide cleavage, 20 min | Potency, µM (titrated, usually from 57.5 µM), without a hit: at the highest dose activity change, negative = active | hit rate 1.9% among 340,000; active = well fitted falling curve with a large enough effect; inconclusive = small, poorly fitted or top-dose-only effect; inactive = no such curve, though single readings can be large or run the other way; further: potency means the concentration at half of the fitted maximal effect; the source files actives as falling curves though it sought activators and does not explain the sign; nearly all actives have a fitted effect of over 65% in size; many hits overshoot -100%
Target sequence (P80244 whole entry, looked up): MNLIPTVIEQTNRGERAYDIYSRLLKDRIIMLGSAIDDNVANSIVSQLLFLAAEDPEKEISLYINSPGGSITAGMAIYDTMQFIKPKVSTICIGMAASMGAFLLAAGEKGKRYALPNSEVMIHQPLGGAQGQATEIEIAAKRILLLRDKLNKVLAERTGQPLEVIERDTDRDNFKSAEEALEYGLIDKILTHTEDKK
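ClpP 10 microg/mL final, pH 8 Tris/KCl buffer with BSA, glycerol, Tween-20; compound pinned in; FRET-FV substrate; RT 20 min; Ex320/Em430; ΔFRET vs ADEP 5.8 microM, DMSO, no enzyme.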
Menin-MLL FL inh: qHTS Assay for Inhibitors Targeting the Menin-MLL Interaction in MLL Related Leukemias: Competition With Fluorescein Labeled MLL-derived Peptide | Fluorescence polarization, fluorescein-MLL peptide displacement from menin | FP activity change, % at 61.4 µM | 290,000 tested, under 10 active; inconclusive = falling polarisation curve, or a change in total fluorescence; inactive = total fluorescence flat and polarisation flat or rising; no compound was filed as active; the % refers to the polarisation; negative = inhibition;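 further: % of control where 0% means no effect; inhibitors lower the polarisation; unlabelled MLL peptide was the positive control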
TRPML1 inh: qHTS for Inhibitors of the Human Mucolipin Transient Receptor Potential 1 (TRPML1); Mucolipin-1 (Homo sapiens), Q9GZU1; TRPML1-inducible cells, Ca2+ dye fluorescence, FDSS; hits give low values; inhibition of EC80 agonist-evoked calcium signal; activity change, negative = inhibition, % (concentration not given with the values); hit rate 0.02% among 390,000; AID 624415, 2012; in the data active means activity change below about -50%; inconclusive means about -30% to -50%; inactive means above about -30%;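 further: stimulus is agonist 54-4 at its EC80 concentration; on the % scale 0 is the no-effect control and ±100 the full control effect; compound concentration not given in the record; the text of the record puts the active cut at -80%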
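Calcium fluorescence in TRPML1-DL cells induced overnight with Tet: a 110 s read after compound pin addition, then a 110 s antagonist read after challenge with 54-4 at 4 uM final (EC80).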
TRPML1 agonist: qHTS for Agonists of the Human Mucolipin Transient Receptor Potential 1 (TRPML1); hit rate 0.12% among 410,000; activation, % (test concentration not listed); Mucolipin-1 (Homo sapiens), Q9GZU1; TRPML1-expressing cells, Ca2+ dye fluorescence, FDSS; host cell line not named in the record; reference of the full effect not given here; in the data active = activation above about 50%; inconclusive = about 30% to 50%; inactive = below about 30%; further: 0% is about no effect; the text of the record puts the active cut at 80%
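Kinetic FDSS Ca2+ read in Tet-induced TRPML1-DL cells (ABD Ca8 dye plus quencher, 45-90 min RT loading): baseline, then compound, then 110 s agonist window; EC80 agonist 54-4 at 4uM final added afterwards for a 110 s antagonist window.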
TRPV1 PAM: HTS Assay for Compounds that Act as Potentiators of the Vanilloid Receptor 1 | Transient receptor potential cation channel subfamily V member 1 (Homo sapiens), Q8NER1 | hit rate 0.02% among 320,000 | potentiation, % at 8.33 µM | TRPV1-expressing cells, Fluo-8 calcium influx, capsaicin EC20 potentiation; host cell line not named in the record; control for the full effect not named in the record | AID 540277, 2011; active means potentiation above 80%; inconclusive means 30% to 80%; inactive means below 30%; further: 0% is about no effect
Target sequence (Q8NER1 whole entry, looked up): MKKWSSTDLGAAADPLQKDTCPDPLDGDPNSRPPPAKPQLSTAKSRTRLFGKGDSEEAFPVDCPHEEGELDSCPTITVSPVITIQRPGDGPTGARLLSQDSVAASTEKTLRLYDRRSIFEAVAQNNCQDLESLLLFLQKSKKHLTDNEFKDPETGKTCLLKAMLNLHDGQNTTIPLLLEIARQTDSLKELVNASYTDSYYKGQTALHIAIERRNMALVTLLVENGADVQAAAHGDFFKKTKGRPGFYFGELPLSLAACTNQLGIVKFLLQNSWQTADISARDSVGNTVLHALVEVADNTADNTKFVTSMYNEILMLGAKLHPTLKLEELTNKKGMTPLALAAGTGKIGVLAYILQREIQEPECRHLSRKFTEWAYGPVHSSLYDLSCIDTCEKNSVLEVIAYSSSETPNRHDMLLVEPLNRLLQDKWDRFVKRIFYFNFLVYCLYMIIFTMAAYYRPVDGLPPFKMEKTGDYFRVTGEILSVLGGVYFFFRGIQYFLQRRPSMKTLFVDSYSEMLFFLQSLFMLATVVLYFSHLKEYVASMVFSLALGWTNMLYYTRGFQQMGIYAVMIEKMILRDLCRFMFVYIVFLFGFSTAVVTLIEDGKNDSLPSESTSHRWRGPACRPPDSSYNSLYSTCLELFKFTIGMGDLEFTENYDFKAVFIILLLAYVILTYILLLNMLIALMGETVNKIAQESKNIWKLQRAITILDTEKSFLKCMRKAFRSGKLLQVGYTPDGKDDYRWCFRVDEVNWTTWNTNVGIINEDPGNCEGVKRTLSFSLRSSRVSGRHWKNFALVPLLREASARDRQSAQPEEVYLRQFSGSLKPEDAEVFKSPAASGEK
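Cells expressing TRPV1 were dye-loaded with Fluo-8 and read kinetically: 10 s baseline, 3 min after compound (agonist portion), then 2 min after EC20 capsaicin (allosteric enhancer portion). Calcium-bound dye fluorescence at 480/520 nm.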
Sfp PPTase inh: qHTS Assay for Inhibitors of Bacillus subtilis Sfp phosphopantetheinyl transferase (PPTase). hit rate 3.5% among 310,000. Biochemical Sfp PPTase activity, qHTS. Potency, µM, inactives show max response, negative = inhibition, hits mostly inhibitors. 4'-phosphopantetheinyl transferase ffp (Bacillus subtilis), Q9F4F7; active means well fitted inhibition curve with a large enough effect; inconclusive means small, poorly fitted or top-dose-only effect, or another doubt; inactive means no such curve, though single readings can be large or run the other way;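 further: the enzyme is Sfp with the accession as filed and its product quenches rhodamine fluorescence; potency means the concentration at half of the fitted maximal effect; 0% = enzyme reaction without inhibitor and -100% = no enzyme wells; top concentration of the series not given in the record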
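Reaction rates are the 30-min fluorescence difference (ex 525, em 598 nm) in wells containing 15 nM Sfp, 5 uM rhodamine-CoA and 12.5 uM BHQ-2-YbbR at pH 7.6 with 10 mM MgCl2.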
Numbers without * were called inactive; ? = inconclusive; · = not tested or not shown; & = joins results of further samples; [ ] = remark or other dose.

canonical_smiles,PINK1 modulator,ClpP mod,Menin-MLL FL inh,TRPML1 inh,TRPML1 agonist,TRPV1 PAM,Sfp PPTase inh
CCCn1c(=N)n(CC(=O)c2ccc(Cl)cc2)c2ccccc21,3.2%,·,-9.0,-1,-0.5,-4,16%
COc1cccc(-c2sc3ccc(OC)cc3c2C#CC2(O)CCCCC2)c1,3.3%,3.9%,·,75,2.6,-4,·
CC(c1ccncn1)N(C)Cc1nc(Cc2ccccc2F)no1 (stereo not drawn),0.7%,100%,-0.1,6,0.0,1,16%
O=c1c2ccccc2nnn1COc1cccc(Cl)c1,3.2%,0.0%,-5.1,18,1.4,-2,4%
COc1ccc(/C=C(/NC(=O)c2ccccc2)C(=O)N2CCOCC2)cc1OC,3.9%,·,-1.2,1,-0.1,7,15%
O=C(Cc1ccccc1)NC1CCSc2ccccc21 (stereo not drawn),1.0%,-1.0%,·,8,-0.5,3,15%
CCCCOc1ccc(C2/C(=C(\O)c3ccc4c(c3)OCCO4)C(=O)C(=O)N2CCCN2CCOCC2)cc1 (stereo not drawn),12%,-1.8%,7.6,15,0.1,-7,3%
COc1cc(OC)c(NC(=O)CCc2nc(-c3ccc(C)cc3)no2)cc1Cl,5.1%,1.4%,-4.9,11,1.0,?,-17%
COc1ccc(C2(C(=O)N3CCOCC3)CCCC2)cc1,-1.7%,-0.2%,4.2,-2,-0.5,-6,15%
COC(=O)c1c(NC(NC(=O)C(C)C)C(Cl)(Cl)Cl)sc2c1CCC2 (stereo not drawn),29%,?,4.3,-12,1.1,-17,50µM*
Cc1[nH]n(C(N)=S)c(=O)c1N=Nc1ccc(S(=O)(=O)N2CCCCCC2)cc1,-2.9%,5.5%,-3.2,0,-1.2,0,6%
Cc1cc(C(=O)Nc2nncs2)oc1C,-1.4%,-1.2%,-4.1,-10,1.1,25,2%
O=C1C(Cl)=C(N2CCCCCC2)C(=O)N1c1ccccc1Cl,0.9%,-3.5%,11,-6,-0.5,-16,-16%
Cc1ccc(-c2cnc(C(O)c3cc(C)cc(C)c3)[nH]2)cc1 (stereo not drawn),5.5%,1.5%,·,·,-1.0,·,·
CNc1ncc(C(=O)c2ccc(Cl)cc2)s1,-0.1%,-2.0%,-0.6,28,0.5,-2,28%
Cc1cc(C)c(NC(=O)CSc2nc3ccccc3c3nc(CCn4cncc4C)nn23)c(C)c1,1.8%,-3.4%,·,-7,0.7,·,·
O=C(NNc1ccccc1[N+](=O)[O-])NC1CCCCC1,-0.3%,·,0.9,2,-0.3,2,-14%
O=C1c2ccccc2C(c2nnnn2Cc2ccccc2)N1CCc1ccc(O)cc1 (stereo not drawn),1.4%,1.4%,·,·,-1.0,·,·
O=C(CSc1cccc[n+]1[O-])c1ccc(-c2ccccc2)cc1,3.7%,·,2.3,-8,-0.1,5,-28%
O=C(CNC(=O)c1ccc(Cl)cc1)NC1CCCCC1,1.0%,1.6%,·,20,0.0,-17,11%
O=C1OCCN1C(=O)[C@H]1[C@H](c2ccc(Cl)cc2)C(c2cccc(Cl)c2)=NN1c1ccc(Br)cc1,14%,3.7%,0.9,1,-0.3,·,26%
COc1ccc(NS(=O)(=O)c2cc(NC(=O)C3CCCO3)ccc2N2CCCC2)cc1 (stereo not drawn),2.5%,·,-0.2,-8,-0.4,-3,5%
COc1ccc(CCNC(=O)C2CCN(S(=O)(=O)c3c(C)noc3C)CC2)cc1OC,1.6%,0.2%,1.4,-7,0.1,15,3%
CCCCn1c(SCC(=O)N2CCOCC2)nc2ccccc2c1=O,-0.4%,·,3.5,7,1.6,-10,-8%
CCC(NC(=O)Nn1cnnc1)(C(F)(F)F)C(F)(F)F,0.1%,-0.3%,1.9,-5,0.4,6,23%
COC(=O)c1cc(COC(=O)c2cccnc2SC)oc1C,-0.3%,-0.4%,-0.7,3,9.0,-3,-6%
Cc1csc(NC(=O)CCn2c(=O)oc3ccccc32)n1,-2.3%,1.0%,1.4,8,0.1,24,?
COCCN1C(=O)N[C@@H](c2cccc(C(F)(F)F)c2)C(C(=O)OC)=C1C,-0.6%,-0.7%,-0.9[11.7 µM],6,-0.1,·,18%
COc1ccc(NC(=O)c2ccc3[nH]c(=O)c(=O)[nH]c3c2)c(OC)c1,3.2%,-2.3%,4.6,3,-0.4,6,26%
COc1ccccc1NC(=O)C1=C(C)Nc2nnnn2C1c1cc(Br)ccc1OC (stereo not drawn),4.7%,-4.6%,-0.2,-8,12,-2,2%
O=C(CCNS(=O)(=O)c1ccc(Br)cc1)NNC(=O)C1COc2ccccc2O1 (stereo not drawn),-1.7%,·,·,-7,-0.6,·,·
Cc1ccc(NC(=O)CSc2nnc(-c3cnccn3)n2C)cc1C,2.6%,0.5%,·,-2,-0.5,-1,-6%
CCN(CC)S(=O)(=O)c1cccc(NC(=O)CN2C(=O)c3ccc([N+](=O)[O-])cc3C2=O)c1,3.1%,-3.7%,-1.2,-2,-0.3,-2,-12%
CC(=O)N1c2ccccc2C(CBr)=CC1(C)C,0.2%,-1.6%,4.3,-10,-0.3,·,15%
CC(=O)NS(=O)(=O)c1ccc(NS(=O)(=O)c2ccccc2[N+](=O)[O-])cc1,3.4%,·,3.5,1,0.5,7,-1%
Cc1c(CN(C)C)c2c(n1Cc1ccccc1)C(=O)c1ccc(Br)cc1-2,-1.4%,0.7%,-1.3,-3,-0.9,1,-18%
Cc1ccc(NC(=O)CN2C(=O)c3ccccc3Sc3ccc(C(=O)N4CCOCC4)cc32)c(Cl)c1,1.4%,-0.4%,·,9,0.6,·,·
CCc1ccccc1Nc1nc(N)nc(CSc2nnc3ccccn23)n1,1.2%,·,-0.2,20,-0.8,3,-12%
COc1cc(NC(=S)N2CCCC(C)C2)c(OC)cc1Cl (stereo not drawn),0.9%,·,-0.9,-5,-0.8,-10,14µM*
CC(=O)Nc1c(NCC(C)C)c2ccccc2oc1=O,-0.6%,-1.4%,-0.4,-2,-0.7,7,24%
CC(C)CSc1nnc(N)s1,-0.8%,-0.5%,-0.5,20,2.1,-1,0%
O=C(CCC(NC(=O)OCc1ccccc1)C(=O)O)OCc1ccccc1 (stereo not drawn),1.3%,1.3%,0.7,-10,0.0,10,5%
O=C(CSc1nc(-c2ccc(F)cc2)cs1)NC(=O)NCc1ccco1,?,0.5%,3.2,-1,-0.1,4,?
COc1ccc(NC(=O)c2ccc(COc3ccccc3OC)o2)cc1OC,0.8%&3.3%,0.3%&0.7%,-4.4,-6&16,-1.3&2.3,2,?
Cc1ccccc1C(=O)N/N=C/c1ccncc1,-1.1%,0.8%,1.6,12,-0.6,-6,12%
Cc1ccccc1S(=O)(=O)NC1OC(=O)C(Cl)=C1Cl (stereo not drawn),1.3%,1.0%,1.9,1,-0.4,2,-28%
Cc1nc([N+](=O)[O-])c(NCCO)n1Cc1ccccc1,-0.7%,·,-2.8,5,0.1,0,11%
COc1ccc(C(=O)CN2C(=O)c3ccccc3S2(=O)=O)cc1Br,-0.4%,-0.7%,·,-4,-0.3,2,13%
C=CCn1c(-c2ccccc2)nc2nc3ccccc3nc21,0.3%,?,-1.0,-17,-0.1,?,0%
O=C(NC1CCSc2ccccc21)c1cc(S(=O)(=O)N2CCOCC2)ccc1F (stereo not drawn),1.5%,-1.6%,·,1,-0.2,-5,21%

One compound at a time (already shown).
Record of Cc1csc(NC(=O)CCn2c(=O)oc3ccccc32)n1 = PINK1 modulator = -2.3%; ClpP mod = 1.0%; Menin-MLL FL inh = 1.4; TRPML1 inh = 8; TRPML1 agonist = 0.1; TRPV1 PAM = 24; Sfp PPTase inh = ?
Record of Cc1c(CN(C)C)c2c(n1Cc1ccccc1)C(=O)c1ccc(Br)cc1-2 = PINK1 modulator = -1.4%; ClpP mod = 0.7%; Menin-MLL FL inh = -1.3; TRPML1 inh = -3; TRPML1 agonist = -0.9; TRPV1 PAM = 1; Sfp PPTase inh = -18%

The list continues.
canonical_smiles,PINK1 modulator,ClpP mod,Menin-MLL FL inh,TRPML1 inh,TRPML1 agonist,TRPV1 PAM,Sfp PPTase inh
COc1ccc(C(=O)NCC(=O)NCC2(N(C)C)CCCCC2)cc1OC,-2.4%,-4.2%,-2.5,-18,-0.3,10,11%
COc1cccc(C(=O)Nc2cc(C(=O)NCc3ccc(C)cc3)ccc2N2CCC3(CC2)CC(c2cccc(Br)c2)=NO3)c1,-0.8%,-15%,·,24,0.0,-27,·
O=[N+]([O-])c1ccc(NC(c2ccccc2)c2ccc3cccnc3c2O)cc1 (stereo not drawn),-3.0%,·,·,9,0.9,·,·
O=C(COc1ccccc1F)Nc1c2c(nn1-c1ccccc1)CS(=O)(=O)C2,-3.8%,-2.2%,-2.7,0,1.0,-3,0%
Cc1cc(NC(=O)CCC(=O)N(CC(=O)NC2CCCC2)Cc2ccc(F)cc2)no1,0.2%,1.9%,-1.1,-11,-0.3,9,7%
CC1(C)CC(=O)C2=C(C1)NC(Nc1nc3ccccc3o1)=NC2c1cccnc1 (stereo not drawn),-0.3%,?,·,·,-0.5,·,·
CC(NC(=O)COC(=O)C1CCN(c2ccc(C(F)(F)F)cn2)CC1)c1ccc(F)cc1 (stereo not drawn),1.1%,-19%,·,23,0.5,9,·
C[C@H](CO)N1C[C@H](C)[C@@H](CN(C)C(=O)Nc2ccccc2)Oc2c(NC(=O)Nc3ccc(C(F)(F)F)cc3)cccc2C1=O,0.6%,-0.4%,·,-1,1.7,·,·
CN1CCN(CCNC(=O)c2cn(Cc3ccccc3F)nn2)CC1,3.1%,·,-0.4,-4,0.1,6,19%
COc1ccc(Cn2nc(-c3ccccc3)c(N3CCCCC3)cc2=O)cc1,-0.4%,·,-0.1,1,1.4,14,?
